PAX8 inh HTS = inhibitors of PAX8 transcriptional activity in RMG-I cells; RMG-I TPO-luciferase reporter, SteadyGlo, 24 h; inhibition, % at 12.6 µM; hit rate 1.2% among 360,000;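 active = mean replicate inhibition at least 60% with every replicate also reaching 60%; inconclusive = only one of the two criteria is met; inactive = mean below 60% and not all replicates reaching 60%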;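 note: luciferase light reporting Pax8 driven TPO promoter activity; plate controls were median of neutral control wells for no effect and mitoxantrone controls for full effect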
CASP6 VEID inh = caspase-6 (human) enzyme inhibition; purified caspase-6, Z-VEID-R110 cleavage fluorescence; inhibition, % at 12.5 µM; hit rate 0.53% among 350,000; AID 686996;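 active = mean inhibition across replicates at least about 35%, with every replicate also reaching that limit, limit read from the data; inconclusive = only one of the two criteria met; inactive = neither criterion met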;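 note: 0% = median of neutral control wells and 100% = no fluorescence left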
Target sequence (P55212 24-179 limits assumed): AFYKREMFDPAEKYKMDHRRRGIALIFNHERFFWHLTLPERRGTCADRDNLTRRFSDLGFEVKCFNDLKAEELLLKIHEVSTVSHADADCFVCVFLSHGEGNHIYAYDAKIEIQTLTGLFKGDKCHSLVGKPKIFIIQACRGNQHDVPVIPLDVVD
Target sequence (P55212 194-293 limits assumed): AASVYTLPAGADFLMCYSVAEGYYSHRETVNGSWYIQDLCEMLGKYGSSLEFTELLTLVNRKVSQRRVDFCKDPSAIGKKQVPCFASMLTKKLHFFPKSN
LGR2 inh = Drosophila LGR2 receptor signaling inhibition; HEK293 LGR2, CRE-luciferase, bursicon-stimulated, 4 h; inhibition, % at 9.99 µM; hit rate 0.35% among 380,000; AID 720647;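 active = drop in luminescence signal, shown as inhibition above about 50% in the replicate tests, limit read from the data, passing the limit was not always enough; inconclusive = probably only some replicates passing the limit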;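 note: agonist challenge used bursicon conditioned medium at about half maximal strength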
EWS-Fli inh = inhibitors of EWS/Fli oncoprotein transcriptional activity | A673 NR0B1-luciferase reporter, viability-normalised | inhibition, % at 12.6 µM | hit rate 0.67% among 350,000 | AID 651661;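 active = mean inhibition of at least 50% after viability correction, with every replicate also passing that limit; inconclusive = mean reaches 50% but only one of two replicates passes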;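 note: firefly luciferase signal divided by Alamar Blue viability fluorescence both relative to DMSO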
SIRT5 block = blocks human SIRT5 desuccinylation of peptide. Q9NXA8. Purified SirT5, succinyl-peptide AMC, trypsin-coupled fluorescence. inhibition, % at 15 µM. hit rate 1.1% among 330,000. AID 652115; in the data active = inhibition above about 15%; inconclusive = no clear call, values can overlap the other calls
Target sequence (Q9NXA8 whole entry, looked up): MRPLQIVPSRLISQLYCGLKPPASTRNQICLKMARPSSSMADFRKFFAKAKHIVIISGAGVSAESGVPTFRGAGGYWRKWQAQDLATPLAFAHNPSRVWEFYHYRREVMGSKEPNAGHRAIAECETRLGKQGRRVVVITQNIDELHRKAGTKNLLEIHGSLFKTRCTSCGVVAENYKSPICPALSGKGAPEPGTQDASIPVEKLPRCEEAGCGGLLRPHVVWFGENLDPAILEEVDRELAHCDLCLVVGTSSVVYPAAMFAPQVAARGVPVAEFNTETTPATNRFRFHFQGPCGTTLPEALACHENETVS
DENV2 CPE rescue = inhibitors of DENV2 cytopathic effect; DENV2-infected cells, cytopathic effect rescue, plate reader; CPE inhibition, % at 9.99 µM; hit rate 1.7% among 350,000; AID 651640; in the data active = CPE inhibition above about 20%, passing the limit was not always enough; inconclusive = no clear call, values can overlap the other calls; tested in BHK-21 cells;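 note: 0% = median of neutral control wells and 100% = median of positive control wells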
An asterisk follows results filed as active; ? = inconclusive; · = not tested or not shown; & = joins results of further samples. Some of the compounds tested (hit frequency here may not be typical).

SMILES | PAX8 inh HTS | CASP6 VEID inh | LGR2 inh | EWS-Fli inh | SIRT5 block | DENV2 CPE rescue
CC1=C(C(=O)Nc2ccccc2)C(c2cccnc2)n2ncnc2N1 (configuration not stated) | -7 | · | 0 | · | · | ·
CC(C)NC(=O)Nc1cccc2c1O[C@@H](CN(C)Cc1ccc(Oc3ccccc3)cc1)[C@H](C)CN([C@H](C)CO)C2=O | 31 | 3 | 14 | 6 | 2 | 4
COc1ccc(C(=O)NCc2nnc(SCC(=O)Nc3cc(C)on3)o2)cc1OC | 6 | 2 | 4 | -7 | 0 | -6
C[C@@H]1CN([C@@H](C)CO)C(=O)c2cc(-c3cncnc3)cnc2O[C@H]1CN(C)C(=O)c1ccccc1F | · | 0 | 8 | -15 | -1 | -4
CCc1ccc(NCc2cc3c(C)nn(-c4ccccc4)c3[nH]c2=O)cc1 | · | -2 | -20 | -12 | -2 | 3
Cc1ccc(NC(=O)N2CCCC2C(=O)Nc2c(C)cc(C)cc2C)cc1 (configuration not stated) | -8 | 0 | 0 | -3 | -13 | -1
COc1cc(S(=O)(=O)NCc2ccc3c(c2)OCO3)c(OC)cc1C | 16 | -5 | 19 | 0 | 4 | -2
CO[C@H]1CN(C)C(=O)c2cc(NS(=O)(=O)CC(F)(F)F)ccc2OC[C@H](C)N(Cc2cccnc2)C[C@@H]1C | 13 | -4 | 4 | 4 | · | 37*
O=C(N/N=C/c1ccccn1)c1ccc(Cl)cc1 | -109 | -4 | -20 | · | 1 | 3
C[C@H](CO)N1C[C@H](C)[C@@H](CN(C)Cc2ccccc2)Oc2ncc(C#Cc3ccccn3)cc2C1=O | · | · | -8 | 13 | · | ·
O=C(CCN1C(=O)c2ccccc2C1=O)NCc1cccc(Cl)c1 | -3 | 1 | -2 | 1 | -1 | 4
O=c1cc(O)c2ccccc2n1Cc1ccccc1 | -4 | 0 | 17 | 11 | -3 | 0
C[C@H]1CN([C@@H](C)CO)S(=O)(=O)c2ccc(C#CCN(C)C)cc2O[C@H]1CN(C)Cc1cccnc1 | · | -1 | -5 | -7 | -2 | -3
COc1cc2c(cc1OC)CN(C(=O)C(C)(C)C)CC2 | · | -2 | -1 | 3 | -3 | 0
Clc1nn2cnnc2c2ccccc12 | 21 | 3 | -4 | 20 | 0 | -2
C[C@@H]1CN([C@@H](C)CO)C(=O)c2cc(NS(=O)(=O)c3ccc(Cl)cc3)ccc2O[C@@H](C)CCCCO[C@@H]1CN(C)C(=O)Nc1ccc(F)cc1 | 5 | 0 | -3 | -5 | -23 | -3
CC(C)(C)C1=CC(O)(c2ccccc2)C=C(C(C)(C)C)C1=O | 14 | 0 | 1 | 26 | -6 | 9
COc1ccc(Sc2nc(-c3ccccn3)ncc2OC)cc1 | 18 | -1 | 27 | 13 | 1 | -2
C[C@@H]1CN([C@@H](C)CO)C(=O)c2cc(NC(=O)Cc3ccccc3)ccc2O[C@@H](C)CCCCO[C@H]1CN(C)C(=O)c1ccncc1 | -14 | 1 | 12 | -5 | 5 | -10
N[C@@H](Cc1cnc[nH]1)C(=O)Nc1ccc2ccccc2c1 | 6 | 1 | · | 7 | -3 | 4

Taken from the entries so far for reference:
SMILES | PAX8 inh HTS | CASP6 VEID inh | LGR2 inh | EWS-Fli inh | SIRT5 block | DENV2 CPE rescue
CC1=C(C(=O)Nc2ccccc2)C(c2cccnc2)n2ncnc2N1 (configuration not stated) | -7 | · | 0 | · | · | ·
CC(C)NC(=O)Nc1cccc2c1O[C@@H](CN(C)Cc1ccc(Oc3ccccc3)cc1)[C@H](C)CN([C@H](C)CO)C2=O | 31 | 3 | 14 | 6 | 2 | 4
COc1ccc(C(=O)NCc2nnc(SCC(=O)Nc3cc(C)on3)o2)cc1OC | 6 | 2 | 4 | -7 | 0 | -6
C[C@@H]1CN([C@@H](C)CO)C(=O)c2cc(-c3cncnc3)cnc2O[C@H]1CN(C)C(=O)c1ccccc1F | · | 0 | 8 | -15 | -1 | -4
CCc1ccc(NCc2cc3c(C)nn(-c4ccccc4)c3[nH]c2=O)cc1 | · | -2 | -20 | -12 | -2 | 3
Cc1ccc(NC(=O)N2CCCC2C(=O)Nc2c(C)cc(C)cc2C)cc1 (configuration not stated) | -8 | 0 | 0 | -3 | -13 | -1
COc1cc(S(=O)(=O)NCc2ccc3c(c2)OCO3)c(OC)cc1C | 16 | -5 | 19 | 0 | 4 | -2
CO[C@H]1CN(C)C(=O)c2cc(NS(=O)(=O)CC(F)(F)F)ccc2OC[C@H](C)N(Cc2cccnc2)C[C@@H]1C | 13 | -4 | 4 | 4 | · | 37*
O=C(N/N=C/c1ccccn1)c1ccc(Cl)cc1 | -109 | -4 | -20 | · | 1 | 3
C[C@H](CO)N1C[C@H](C)[C@@H](CN(C)Cc2ccccc2)Oc2ncc(C#Cc3ccccn3)cc2C1=O | · | · | -8 | 13 | · | ·
O=C(CCN1C(=O)c2ccccc2C1=O)NCc1cccc(Cl)c1 | -3 | 1 | -2 | 1 | -1 | 4
O=c1cc(O)c2ccccc2n1Cc1ccccc1 | -4 | 0 | 17 | 11 | -3 | 0

Additional compounds follow.
SMILES | PAX8 inh HTS | CASP6 VEID inh | LGR2 inh | EWS-Fli inh | SIRT5 block | DENV2 CPE rescue
COC(=O)C1=NN(c2ccc(Cl)cc2)C2C(=O)N(c3ccccc3OC)C(=O)C12 (configuration not stated) | -1 | 2 | 14 | · | · | 0
CCOc1ccc(OCCC(=O)N2CCc3cc(OC)c(OC)cc3C2)cc1 | 5 | 9 | -8 | -4 | -21 | -9
NS(=O)(=O)c1cccc(NS(=O)(=O)c2cccc(C(F)(F)F)c2)c1 | 10 | 1 | 20 | -8 | -3 | -7
Cc1cccc(NC(=O)c2ccc(N(C)C3CCCCC3)c([N+](=O)[O-])c2)n1 | · | · | 10 | · | · | ·
CC[C@H](C)[C@H](NC(N)=O)C(=O)NNC(=O)c1ccc(COc2cccc3cccnc23)cc1 | 0 | 10 | -14 | -5 | 1 | 3
CCOC(=O)C1CCCN(C(=S)NC(=O)/C=C/c2ccc(F)cc2)C1 (configuration not stated) | -2 | -3 | -9 | · | -2 | -2
COc1cnc(-c2ccccn2)nc1Oc1c(C)cccc1C | -1 | 1 | 13 | 27 | -2 | 3
C[C@@H]1CN([C@H](C)CO)C(=O)c2cc(NC(=O)Cc3ccccc3)ccc2O[C@@H](C)CCCCO[C@@H]1CN(C)C(=O)c1ccncc1 | -9 | 2 | 5 | 2 | 2 | -9
CN(C)S(=O)(=O)c1ccc(NC=O)cc1 | -13 | -1 | 12 | 3 | -9 | ·
CCN(CC)S(=O)(=O)c1ccc2c(c1)N(CC(=O)NCc1ccccn1)C(=O)CO2 | -17 | -2 | 0 | 0 | -6 | ·
COCCNC(=O)C[C@H]1C[C@@H]2c3cc(NC(=O)C4CCOCC4)ccc3O[C@@H]2[C@@H](CO)O1 | -3 | 1 | 3 | -5 | 2 | 10
C/C(=N\NC(=O)c1ccc(NS(=O)(=O)c2cccs2)cc1)c1ccncc1 | 5 | 3 | 8 | -3 | 2 | -2
Cc1ccc(C(=O)CSc2nc(O)cc(=O)[nH]2)cc1C | 6 | 0 | 4 | 4 | -1 | 14
CCOC(=O)c1cnc(-n2nc(C)cc2C)nc1NC1CCCC1 | 15 | 1 | 29 | 22 | 0 | -6
COc1cc2c(cc1OC)CN(C(=O)c1ccco1)CC2 | -2 | 7 | -24 | 0 | 2 | ?
Cc1ccc(S(=O)(=O)N(C)C[C@@H]2Oc3ccc(NC(=O)Cn4cnnn4)cc3C(=O)N([C@@H](C)CO)C[C@H]2C)cc1 | 4 | 0&-1 | -18&21 | -5&7 | 4 | 9
CCOC(=O)CNC(=O)CSc1nnc(COc2ccc(Cl)cc2)n1CC | · | · | -6 | · | · | ·
CN(CCO)c1cc(NCCCN2CCC(Cc3ccccc3)CC2)c2nonc2c1[N+](=O)[O-] | 10 | -5 | 4 | 20 | 11 | -6
COc1ccc(/C=N/NC(=O)c2cccc(NC(=O)c3ccc(Cl)cc3)c2)c(OC)c1 | -51 | · | 9 | · | · | ·
O=C(C[C@H]1C[C@H]2c3cc(NC(=O)CC4CC4)ccc3O[C@H]2[C@H](CO)O1)NCc1cccc(F)c1 | · | -5 | -4 | -1 | 2 | -4
C[C@H]1CCCCO[C@H](CN(C)C(=O)c2ccncc2)[C@@H](C)CN([C@@H](C)CO)C(=O)c2cc(NC(=O)Cc3ccccc3)ccc2O1 | 5 | 1 | 7 | -1 | 6 | -12
CCOC(=O)C1CCN(C(=O)c2ccc(S(=O)(=O)Nc3ccccc3OC)cc2)CC1 | 4 | 2 | -7 | -1 | -4 | 11
COc1ccc(S(=O)(=O)n2oc(=O)cc2-c2ccccc2)cc1OC | -13 | · | · | · | · | ·
CCOC(=O)C(=CNc1cc(OC)ccc1-n1cccc1)C(=O)OCC | -3 | -1 | 30 | 4 | 2 | 9
Cc1ccccc1Nc1ccc(S(=O)(=O)N2CCOCC2)cc1[N+](=O)[O-] | 3 | 1 | · | 10 | · | -4
COc1cccc2cc(C(=O)CS(=O)(=O)c3ccc(C(C)(C)C)cc3)c(=O)oc12 | -8 | 1 | 8 | 0 | -2 | -4
CN1C2CC(OC(=O)C(CO)c3ccccc3)CC1C1OC12 (configuration not stated) | -4&-1&-3 | -2&1&8 | -31&-9&19 | -9&3&13 | -3&-7&0 | 6&-5&5
Cc1ccc(S(=O)(=O)N(C)C[C@@H]2Oc3ccc(NC(=O)Cn4cnnn4)cc3C(=O)N([C@H](C)CO)C[C@H]2C)cc1 | · | -4 | -10 | -4 | 2 | 15
Cc1ccc(C(=O)C=CNNC(=O)c2ccccc2)cc1 | 0 | -2 | -48 | -31 | -1 | 1
C[C@H](CO)N1C[C@H](C)[C@H](CN(C)C(=O)Nc2ccc3c(c2)OCO3)Oc2c(NS(C)(=O)=O)cccc2C1=O | · | 1 | 4 | 1 | 3 | 11
O=C1Cc2ccccc2C(=O)N1CCc1ccccc1 | 13 | 23 | -6 | -10 | · | -5
CO[C@H]1CN(C)C(=O)c2cc(NS(=O)(=O)CC(F)(F)F)ccc2OC[C@@H](C)N(Cc2cccnc2)C[C@H]1C | -4 | -4 | -24 | 5 | · | 15
O=C(C[C@@H]1C[C@@H]2c3cc(NC(=O)CC4CC4)ccc3O[C@@H]2[C@@H](CO)O1)NCc1cccc(F)c1 | · | -4 | -16 | 4 | 5 | ?
Cc1ccc2c(CC(=O)NNC(=O)c3ccncc3)coc2c1 | · | 26 | -12 | -2 | 4 | 2
COc1ccccc1NC(=O)C1=C(C)Nc2nnnn2C1c1cccc(C)c1 (configuration not stated) | 22 | 0 | 4 | -1 | -4 | ?
C[C@@H]1CN([C@H](C)CO)C(=O)c2cccc(NS(C)(=O)=O)c2O[C@H]1CN(C)C(=O)Nc1ccc2c(c1)OCO2 | · | -1 | -16 | -10 | 5 | -6
Cc1ccc(NS(=O)(=O)c2cccc3cccnc23)c(Cl)c1 | 1 | -2 | 26 | -20 | -2 | -3
O=C(N/N=C/c1ccccn1)c1cc(-c2ccccc2Cl)n[nH]1 | -6 | 2 | -50 | 21 | 2 | ·
O=C(CSc1nnc(CNC(=O)c2ccccc2)o1)Nc1nccs1 | · | -3 | -2 | 2 | -4 | ?
C[C@@H]1CN([C@H](C)CO)C(=O)c2cccc(NC(=O)c3ccncc3)c2O[C@@H]1CN(C)S(=O)(=O)c1cccs1 | · | -1 | -16 | -1 | 9 | 26*
O=C(Cc1coc2cc(O)ccc12)NNC(=O)c1cccs1 | -13 | 6 | -5 | 6 | · | 4
COCCOC(=O)/C(C#N)=C/c1cn(Cc2ccccc2)nc1-c1cccnc1 | -11 | -1 | -3 | 4 | 0 | 3
O=C(Nc1cccc(-c2ccc(N3CCCCC3)nn2)c1)c1ccco1 | -51 | 2 | -2 | -5 | -1 | 9

Screening data: PubChem, Broad Institute
